Compound activity deposited in PubChem BioAssay by National Center for Advancing Translational Sciences (NCATS).
gsp agonist: gsp mutant agonism; gsp mutant cells, cAMP HTRF, 30 min; control for the full effect not named in the record; Potency, µM (highest dose often 76.9 µM), without a hit: top-dose activation (cAMP increase), usual class: activators; 0.13% of 340,000 active; AID 624287; active = well fitted activation curve with a large enough effect; inconclusive = small, poorly fitted or top-dose-only effect, or another doubt; inactive = no such curve, though single readings can be large or run the other way; cell line not stated here;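 note: phosphodiesterase inhibitor Ro 20-1724 added with compounds to block cAMP breakdown; potency is the fitted concentration of half-maximal effect; nearly all actives have a fitted effect of over 60% in size; about a fifth of the inactives were tested at one dose only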
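Cells stably selected in G418 were plated at 2000/well, grown 16-24 hr, then given compounds in DMSO with the PDE inhibitor […] (300 uM solution added) for 30 min at 37C; cAMP was read by HTRF.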
gsp antagonist: gsp mutant antagonism; gsp-mutant cells, cAMP HTRF, 30 min; control for the full effect not named in the record; Potency, µM (top dose mostly 76.9 µM), without a hit: top-dose activity change, negative = inhibition, usual class: inhibitors; 0.4% of 340,000 active; AID 624288; active = falling curve of any shape with a large fitted effect; inconclusive = falling curve, mostly with a smaller effect; inactive = flat or rising curve; cell line not stated here;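 note: intracellular cAMP measured with PDE inhibitor Ro 20-1724 present during compound exposure; potency is the fitted concentration of half-maximal effect; % is set by controls: 0 for no effect and ±100 for the full control effect; nearly all actives have a fitted effect of over 65% in size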
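G418-selected cells were plated in DMEM/10% FBS for 16-24 h at 37C, then treated with compounds plus the PDE inhibitor […] (300 uM solution added) for 30 min at 37C. Intracellular cAMP was measured by HTRF after 30 min lysis at room temperature.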
Sfp PPTase inh: inhibitors of Bacillus subtilis Sfp phosphopantetheinyl transferase. Potency, µM, for the others: max response, negative = inhibition, actives largely listed as inhibitors. AID 1490. Q9F4F7. Biochemical Sfp PPTase activity, qHTS. 3.5% of 310,000 active; active = well fitted inhibition curve with a large enough effect; inconclusive = small, poorly fitted or top-dose-only effect, or another doubt; inactive = no such curve, though single readings can be large or run the other way;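 note: the enzyme is Sfp with the accession as filed and its product quenches rhodamine fluorescence; potency is the fitted concentration of half-maximal effect; 0% = enzyme reaction without inhibitor and -100% = no enzyme wells; top concentration of the series not given in the record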
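Sfp 15 nM + cpd, 15 min RT; start w/ rhodamine-CoA 5 uM, BHQ-2-YbbR 12.5 uM (final); 50 mM Hepes pH 7.6, 10 mM MgCl2, 0.01% NP-40, 0.01% BSA; read 525/598 nm at 0 and 30 min.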
CtBP-E1A blk: blocks the CtBP interaction with E1A; AlphaScreen GST-E1A/His-CtBP binding, 1536-well; stronger effect = lower value; control for the full effect not named in the record; activity change, % (no concentration beside the values); 0.49% of 340,000 active; AID 651724; in the data active means activity change below about -65%; inconclusive means about -30% to -65%; inactive means above about -30%; note: % is set by controls: 0 for no effect and ±100 for the full control effect; compound concentration not given in the record
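Homogeneous bead-based format: GST-tagged E1A captured on glutathione donor beads, His-tagged CtBP on nickel acceptor beads; compounds precede bead addition by 2 h at 37 °C.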
TRPV1 PAM: potentiators of human vanilloid receptor 1 (TRPV1). Q8NER1. potentiation, % at 8.33 µM. TRPV1-expressing cells, Fluo-8 calcium influx, capsaicin EC20 potentiation; host cell line not named in the record; control for the full effect not named in the record. 0.02% of 320,000 active; active means potentiation above 80%; inconclusive means 30% to 80%; inactive means below 30%; note: 0% is about no effect
Target sequence (Q8NER1 whole entry, looked up): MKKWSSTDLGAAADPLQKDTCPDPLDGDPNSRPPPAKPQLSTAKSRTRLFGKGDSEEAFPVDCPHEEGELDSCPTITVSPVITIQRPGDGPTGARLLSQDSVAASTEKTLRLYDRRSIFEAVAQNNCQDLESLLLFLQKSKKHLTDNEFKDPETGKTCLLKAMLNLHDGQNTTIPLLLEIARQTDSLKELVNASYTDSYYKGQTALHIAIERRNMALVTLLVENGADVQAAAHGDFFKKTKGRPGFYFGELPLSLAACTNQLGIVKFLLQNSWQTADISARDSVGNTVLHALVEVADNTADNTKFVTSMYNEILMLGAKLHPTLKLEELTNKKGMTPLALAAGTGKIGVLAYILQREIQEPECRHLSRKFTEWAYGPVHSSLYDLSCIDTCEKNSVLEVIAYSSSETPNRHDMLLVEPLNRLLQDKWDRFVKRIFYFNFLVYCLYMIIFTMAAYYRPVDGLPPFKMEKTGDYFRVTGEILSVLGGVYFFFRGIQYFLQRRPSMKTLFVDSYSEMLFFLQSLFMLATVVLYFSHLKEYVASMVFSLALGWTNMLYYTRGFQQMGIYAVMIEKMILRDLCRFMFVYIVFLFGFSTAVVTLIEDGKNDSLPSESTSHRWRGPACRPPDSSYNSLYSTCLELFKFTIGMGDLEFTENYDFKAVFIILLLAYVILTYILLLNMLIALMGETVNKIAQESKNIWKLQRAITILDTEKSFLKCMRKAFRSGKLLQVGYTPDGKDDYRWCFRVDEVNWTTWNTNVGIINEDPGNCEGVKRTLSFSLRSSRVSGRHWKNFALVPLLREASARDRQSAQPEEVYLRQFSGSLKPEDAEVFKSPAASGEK
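Fluo-8 calcium influx in TRPV1-expressing cells, kinetic read (ex 480/em 520 nm). Compound added and read 3 min for agonist activity, followed by capsaicin at EC20 final and 2 min further read for enhancement.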
Menin-MLL FL inh: inhibitors of human menin-MLL interaction, wild-type MLL peptide; FP activity change, % at 61.4 µM; AID 1766; 290,000 tested, under 10 active; Fluorescence polarization, fluorescein-MLL peptide displacement from menin; inconclusive = falling polarisation curve, or a change in total fluorescence; inactive = total fluorescence flat and polarisation flat or rising; no compound was filed as active; the % refers to the polarisation; negative = inhibition;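 note: % of control where 0% means no effect; inhibitors lower the polarisation; unlabelled MLL peptide was the positive control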
ClpP mod: qHTS Assay for Activators of ClpP. ATP-dependent Clp protease proteolytic subunit (Bacillus subtilis (strain 168)), P80244. purified B. subtilis ClpP, FRET peptide cleavage, 20 min. Potency, µM (highest dose often 57.5 µM), for the others: at the top dose activity change, negative = active. 1.9% of 340,000 active. AID 651965, 2013; active = well fitted falling curve with a large enough effect; inconclusive = small, poorly fitted or top-dose-only effect; inactive = no such curve, though single readings can be large or run the other way; note: potency is the fitted concentration of half-maximal effect; the source files actives as falling curves though it sought activators and does not explain the sign; nearly all actives have a fitted effect of over 65% in size; many hits overshoot -100%
Target sequence (P80244 whole entry, looked up): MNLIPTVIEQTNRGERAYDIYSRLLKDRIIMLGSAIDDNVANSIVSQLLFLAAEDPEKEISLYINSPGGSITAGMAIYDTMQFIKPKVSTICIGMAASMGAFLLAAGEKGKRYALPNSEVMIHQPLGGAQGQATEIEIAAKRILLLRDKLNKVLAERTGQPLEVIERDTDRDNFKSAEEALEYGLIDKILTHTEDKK
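FRET quenching reversal measured ClpP activation: 10 microg/mL B. subtilis ClpP at pH 8 with the FRET-FV decapeptide, read at 430 nm after 320 nm excitation. The 20-min minus 0-min signal was scaled between DMSO/no-enzyme wells and ADEP (5.8 microM final).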
* hit, by the source's call; ? = inconclusive; . = not tested or not shown; [ ] = remark or other dose.

SMILES	gsp agonist	gsp antagonist	Sfp PPTase inh	CtBP-E1A blk	TRPV1 PAM	Menin-MLL FL inh	ClpP mod
O=c1ccc(S(=O)(=O)N2CCCC2)cn1Cc1ccc(F)cc1	23%	14%	.	4	17	.	1.2%
Cc1ccc2cc(CCNC(=O)C(=O)c3c(C)[nH]c4ccccc34)c(=O)[nH]c2c1	-49%[inhibitor]	-10%	?	.	2	-4.4	-0.2%
COc1ccc(C2CC(c3cccs3)=NN2C(=O)CSc2nncs2)cc1OC (stereo not given)	-5%	-14%	15%	16	-7	0.2	.
Cc1ccc(C(=O)C(OC(=O)COc2ccccc2C)c2ccccc2)cc1 (stereo not given)	-5%	-5%	20%	15	-5	4.1	-2.0%
CC(Sc1nnc(-c2cc3ccccc3o2)n1-c1ccccc1)C(=O)O (stereo not given)	-40%	-2%[15.4 µM]	4%	5	2	-1.2	-26%
N/C(=N\OC(=O)CCc1ccccc1)c1cccnc1	-53%[inhibitor]	-9%	3%	-23	-7	-3.0	-4.6%
Cc1oc(C)c(C(=O)Nc2ccc(CC(=O)O)cc2)c1C(=O)Nc1ccc(CC(=O)O)cc1	0%	-7%	14%	1	2	5.5	1.1%
O=C(Nc1nnc(-c2ccccc2)o1)c1ccc(Cl)cc1	3%	5%	16%	-7	6	3.6	-3.0%
CC(=O)Nc1ccc(S(=O)(=O)Nc2ccc3c(c2)OCO3)cc1	-3%	-1%	20%	0	-1	0.9	.
O=S(=O)(NN1CCOCC1)c1cc(Cl)cc(Cl)c1O	15%[15.4 µM]	-14%	-14%	-3	6	-1.8	-7.3%

Overlap with the part before: 2 compounds; new compounds follow.
SMILES	gsp agonist	gsp antagonist	Sfp PPTase inh	CtBP-E1A blk	TRPV1 PAM	Menin-MLL FL inh	ClpP mod
CC(=O)Nc1ccc(S(=O)(=O)Nc2ccc3c(c2)OCO3)cc1	-3%	-1%	20%	0	-1	0.9	.
O=S(=O)(NN1CCOCC1)c1cc(Cl)cc(Cl)c1O	15%[15.4 µM]	-14%	-14%	-3	6	-1.8	-7.3%
CCCn1c2ccc(F)cc2c2nnc(NN)nc21	4%	-2%	-19%	-10	-6	-2.1	-0.4%
CC1CCc2[nH]c3ccc(C(=O)N4CCCC(C(F)(F)F)C4)cc3c2C1 (stereo not given)	-13%[15.4 µM]	-17%	.	-1	-7	.	-7.7%
CCSc1nc2nccnc2c(=O)[nH]1	7%[15.4 µM]	0%	.	1	.	.	0.1%
Cc1cccc(N2CCN(S(=O)(=O)c3ccc(-c4coc(C)n4)cc3)CC2C)c1 (stereo not given)	-1%	3%	2%	-10	0	-1.5	-1.2%
CCOCCCNC(=S)NCCCNc1nc2c(C)cc(C)cc2cc1C#N	?	-5%	?	6	-1	-5.1	4.2%
CC1=NN(C(=S)Nc2ccccc2)C(c2ccccc2)C1 (stereo not given)	-3%[15.4 µM]	-4%	-16%	-3	-9	6.2	-2.0%
Cn1nc(C(=O)OCC(=O)N(Cc2ccccc2)C(C)(C)C)c2ccccc2c1=O	-4%	-3%	.	7	-14	.	0.9%
CCCCn1c(SCC(=O)Nc2nc(C)cs2)nnc1-c1cccnc1	21%	-12%	0%	6	2	0.1	0.4%
O=C(c1cccc(S(=O)(=O)N2CCN(c3ccccc3)CC2)c1)N1CC=C(c2ccccc2)CC1	?	-4%	0%	-23	11	3.5	-2.4%
CC(=O)c1ccc(N=C2C(=O)Nc3ccccc32)cc1	2%	6%	19%	6	4	-2.2	.
O=C(C1=C(O)C(=O)N(CC2CCCO2)C1c1ccc(Cl)cc1Cl)c1ccco1 (stereo not given)	?	5%	-12%	-3	-15	-11	.
Cc1ccc(S(=O)(=O)N2CCCC(C(=O)NC3CCCC3)C2)cc1 (stereo not given)	18%	7%	26%	5	11	4.3	.
CCCC(=O)O[C@]1(C(=O)CO)CC[C@H]2[C@@H]3CCC4=CC(=O)CC[C@]4(C)[C@H]3[C@@H](O)C[C@@]21C	.	-6%	9%	4	-2	-1.9	0.7%
O=C1c2ccccc2C(=O)N1/N=C/c1ccc(Oc2ccc([N+](=O)[O-])cn2)cc1	3%[15.4 µM]	1%	-11%	-9	4	1.9	-1.6%
CCOc1cc(C(=O)Nc2ccc(S(=O)(=O)NC3=NCCCCC3)cc2)cc(OCC)c1OCC	5%	2%	6%	.	-12	2.0	-2.4%
Cc1cccc(C(=O)N2CCC(=O)N(C(COCc3ccc(Cl)cc3)Cc3ccccc3)CC2)c1 (stereo not given)	-36%	-22%	-7%	-1	2	1.6	0.9%
COc1ccccc1NC1=NC(C)(C)N=C(N)N1	-4%	14%	-4%	1	10	2.9	-0.5%
CC1CCCC(C)N1C(=O)COC(=O)c1ccc[nH]c1=O (stereo not given)	?	8%	1%	4	0	6.0	?
CCN1CCN(c2ccc(S(=O)(=O)N3CCOCC3)cc2NC(=O)/C=C/c2ccc([N+](=O)[O-])cc2)CC1	16%	-8%	.	-14	-5	.	-3.2%
COc1ccc(OC)c(C2NC(=O)NC(C)=C2C(=O)OCc2ccccc2)c1 (stereo not given)	-2%	8%	18%	.	0	4.4	-2.8%
O=C(COC(=O)c1cc(=O)c2ccccc2o1)NCC1CCCCC1	-19%	-4%	21%	-2	-4	-1.5	2.5%
COc1ccccc1NC(=O)CNC(c1ccccc1)c1ccccc1	-2%	-36%	-14%	10	-36	0.7	.
CC(C)Oc1ccc(CCN=C(N)N=C(N)N)cc1Cl	11%	9%	5%	.	-10	0.1	0.3%
CC(=O)c1cccc(S(=O)(=O)NCC(c2ccco2)N2CCCCC2)c1 (stereo not given)	?	-12%	-23%	-13	-1	0.2	-2.1%
COCCn1c(SCC(=O)Nc2ccccc2F)nnc1-c1ccoc1C	8%[15.4 µM]	8%	4%	7	-1	7.6	.
CC(=O)c1ccc(NC(=S)Nc2ccc3cn[nH]c3c2)cc1	-3%[15.4 µM]	.	32µM*	-9	-2	1.7	.
COc1ccc(C(c2sc3nc(C)nn3c2O)N2CCC3(CC2)OCCO3)cc1 (stereo not given)	-34%[inhibitor]	26%	11%	0	5	3.4	-1.0%
O=C1OCCC1Sc1nnc(-c2ccco2)n1-c1ccccc1 (stereo not given)	-4%[15.4 µM]	8%	-1%	10	4	-6.7	.
COc1cccc(C2CC(=O)Nc3c2c(=O)[nH]c2ncnn32)c1 (stereo not given)	-2%[15.4 µM]	-20%	2%	-2	0	-1.9	.
Cn1c(=S)c2[nH]c(SCCN3CCCC3)nc2n(C)c1=O	?	9%	40µM*	.	12	28	-2.8%
CCCN(CCC)c1nc(NC2CCN(C(=O)OCC)CC2)nc(OC)n1	-12%	-16%	3%	3	-20	3.4	-1.6%
CCOc1ccc(CC(=NCCc2ccccc2)C2=C(O)CC(C)(C)CC2=O)cc1OCC	-17%[15.4 µM]	-10%	4%	-1	-15	-1.2	-0.2%
S=C1NCN(Cc2ccccc2)CN1C1CCCCC1	-9%[15.4 µM]	.	17%	-28	-7	-0.3	.
O=C(NCCCO)/C(=C/c1ccc(-c2cccc([N+](=O)[O-])c2)o1)NC(=O)c1ccccc1	9%[15.4 µM]	-19%	7%	3	-4	5.4	-3.2%
O=C(C1CCN(Cc2ccccc2O)CC1)N1CCN(Cc2ccc3c(c2)OCO3)CC1	-17%	-2%	-8%	3	3	-11	-4.6%
CCOC(=O)/C(C#N)=C\c1cc(OC)c(OC)cc1[N+](=O)[O-]	14%[15.4 µM]	-17%	-8%	-5	9	-2.3	.
Cc1cc(C)cc(OCC(=O)N2N=C(C(F)(F)F)CC2(O)C(C)(C)C)c1 (stereo not given)	25%	-10%	?	5	0	1.5	-2.4%
O=C(Nc1ccc(Cl)c(Cl)c1)c1cccnc1	-24%	7%	12%	.	-28	0.5	1.1%
COc1cc(/C=N/NC(=O)c2ccc(NC(=O)C3CCCCC3)cc2)ccc1O	-17%	-8%	-12%	-22	7	0.4	-4.6%
O=C(CCCSc1ccccc1)Nc1cccc(CO)c1	4%	3%	11%	4	5	-2.4	.
CCOc1ccc(-c2nnc(-c3ccc(OC)cc3)o2)cc1	-40%[inhibitor]	-13%	4%	8	6	4.2	?
Cc1cccc2sc(NC(=O)CSc3nc4ccccc4o3)nc12	20%	0%	1%	3	?	1.9	-3.4%
O=C(NCCNc1ccccc1[N+](=O)[O-])c1ccccc1F	7%	-4%	21%	.	-2	-2.5	-0.4%
COC(=O)c1cccc(OCC(O)Cn2ccnc2)c1 (stereo not given)	-23%	20%	2%	16	-2	0.8	-5.0%
COCCNC(=O)c1cc(C)ccc1C	30%[15.4 µM]	8%	16%	4	-1	-1.5	.
CCCSc1nnc(NC(=O)Nc2ccccc2OC)s1	-41%[inhibitor]	-10%	13%	.	-17	-0.7	1.0%
O=C(c1csc2c1CCCC2)N1CCN(c2ccc(F)cc2)CC1	6%	-13%	-10%	-20	-7	-11	-2.2%
COc1ccccc1CN1CCNC(=O)C1CC(=O)NCc1cn(C)nc1C (stereo not given)	-75%[inhibitor]	9%	6%	.	3	2.7	-4.2%
Cc1[nH]c2ccccc2c1N=Nc1cc(C(=O)O)cc(C(=O)O)c1	-23%	-1%	-1%	-4	7	1.7	.
O=C(NNC(=O)c1ccccc1[N+](=O)[O-])c1cccs1	5%	22%	-18%	6	9	-0.9	1.0%
Carrying on:
SMILES	gsp agonist	gsp antagonist	Sfp PPTase inh	CtBP-E1A blk	TRPV1 PAM	Menin-MLL FL inh	ClpP mod
COC(=O)c1ccc(NC(=O)COc2ccc(N(C)S(=O)(=O)c3ccc(C)cc3)cc2)cc1	2%	-8%	.	-4	5	.	-1.2%
COc1cc(/C=C(\C#N)C(=O)Nc2ccc(SC(F)F)cc2)cc(OC)c1OC	-2%	-9%	11%	1	-1	2.2	-3.1%
CCC(C)NC(=O)[C@H](CSCc1ccccc1)N1Cc2ccccc2C1=O (stereo not given in full)	?	-3%	3%	1	-23	-0.1	0.9%
COCCNC(=S)c1ccc(OC)cc1	7%	-4%	-34%	0	5	0.5	1.0%
COc1ccc(N(CC(=O)NC2CCCC2)C(=O)c2ccc(C)s2)c(OC)c1	-1%[15.4 µM]	-12%	8%	0	-7	1.4	.
CCCn1c(N)c(N(CCOC)C(=O)c2ccc(Cl)c([N+](=O)[O-])c2)c(=O)[nH]c1=O	?	-1%	17%	43	-7	-7.3	.

Random draw from the library, and some 5.3% of all compounds hit somewhere here.
